High-throughput results (PubChem)
CBX7 AlphaScr: blocks human CBX7 binding to H3K27me3 peptide. O95931. AlphaScreen His6-CBX7 / biotin-H3K27me3 peptide binding; stronger effect = lower value. normalised signal (fraction of DMSO) (concentration not given with the values). actives 1.1% (n = 66,000). AID 1224903; in the data active = normalised signal below about 0.5;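 note: 100 nL library stock added to about 20 µL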
Target sequence (O95931 whole entry, looked up): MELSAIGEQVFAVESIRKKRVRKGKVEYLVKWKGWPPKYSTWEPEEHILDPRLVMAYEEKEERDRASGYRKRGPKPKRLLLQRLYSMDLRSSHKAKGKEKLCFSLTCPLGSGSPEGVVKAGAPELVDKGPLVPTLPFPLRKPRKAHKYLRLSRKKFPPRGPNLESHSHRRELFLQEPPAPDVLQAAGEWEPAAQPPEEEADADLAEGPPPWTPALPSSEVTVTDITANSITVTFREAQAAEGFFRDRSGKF
CBX7 AlphaScr z-score: recorded beside CBX7 AlphaScr, whose call it bears; z-score; measured here: z-score of CBX7 signal; some inactives read as strong as hits; reference of the scale not given here;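 same signal on another scale; lower means less binding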
Starred values were filed as active, the others as inactive; & = joins results of further samples. Some of the compounds tested, so the mix of outcomes need not match the whole.

SMILES | CBX7 AlphaScr | CBX7 AlphaScr z-score
Cc1ccccc1-c1nc(Cn2c(SCc3ccc(F)cc3)nc3ccncc32)c(C)o1 | 1 | 0.12
COc1cc(C(O)c2nccn2C)ccc1OCc1ccccc1 (configuration not stated) | 0.95 | -2.7
CC(C)N(Cc1ccccc1)C(=O)c1ccc2c(c1)NC(=O)c1ccccc1S2 | 0.85 | -1.1
Cc1noc(C(=O)Nc2cccc(C(F)(F)F)c2)c1Cl | 1.1 | 3.4
c1cncc(CNc2cccc(-c3nc4ccccc4s3)c2)c1 | 0.89&1.2 | -1.7&0.71
Cc1noc(C(=O)N2CCN(Cc3ccc4c(c3)OCO4)CC2)c1Cl | 1 | 1.1
Fc1ccc(-c2nnc3ccc(NCc4ccccn4)nn23)cc1 | 0.93 | -1.6
CCOC(=O)c1cnc2ccc(OC)cc2c1Nc1cccc(C)c1 | 0.84 | -0.56
Cc1ccc(-c2nc(CS(=O)(=O)CC(=O)NCCCc3ccccc3)c(C)o2)cc1 | 1 | 0.013
CN(CCNc1ccc2nnc(-c3ccccc3)n2n1)C1CCCCC1 | 1.1 | 1.1
CCn1c(CNC(=O)c2ccc(F)cc2)nc2ccccc21 | 1 | 0.47
Cc1cc(C)c2nc(N3CCC(C(=O)NC4CCN(Cc5ccccc5)CC4)CC3)sc2c1 | 1 | 0.33
O=C(CN1CCN(Cc2ccc(F)cc2)C1=O)NCc1ccc(Cl)cc1 | 0.87 | -1.8
COc1cccc(C(=O)N2CC(=O)Nc3ccc(Br)cc3C2c2ccc(F)cc2)c1OC (configuration not stated) | 0.91 | -1.9
COc1cccc(NC(=O)CC2Oc3ccccc3NC2=O)c1 (configuration not stated) | 0.95 | -0.99
COc1ccc(S(=O)(=O)NCc2ccc(C(=O)NCc3ccccc3)cc2)cc1 | 1.1 | 0.43
CCCN(CCC)S(=O)(=O)c1ccc(C(=O)Nc2nc(-c3ccncc3)cs2)cc1 | 0.97 | -0.69
CCOC(=O)c1c(NC(=O)c2ccc(OC)cc2)sc2c1CCCCC2 | 1.3 | 10
O=C(Cn1nc(Cc2cccnc2)c2ccccc2c1=O)Nc1ccc(Cl)cc1 | 0.92 | -0.11
Cc1[nH]c2c(cc(C)c3nc(-c4ccccc4)cc(-c4ccccc4)c32)c1C | 1.1 | 1.1
Cc1ccc2c(c1)N(CC(=O)NCCCN1CCOCC1)C(=O)CO2 | 1.1 | 0.25
COCc1cc(C)n(CC(=O)Nc2ccccc2C(F)(F)F)c(=O)c1C#N | 1.2 | 1.8
CCc1ccc(NS(=O)(=O)c2ccc3[nH]cc(C(=O)NC4CCCCC4)c(=O)c3c2)cc1 | 1 | 0.54
COC(CNC(=O)c1c[nH]c2ccc(S(=O)(=O)N(C)c3cccc(C)c3)cc2c1=O)OC | 0.88 | -1.6
CC(NC(=O)C1(c2ccccc2)CCCC1)C1COc2ccccc2O1 (configuration not stated) | 0.93 | -0.16
O=C(c1cc(-c2ccc(F)cc2)on1)N1CCOCC1 | 1.1 | 0.14
CCOc1ccc(-c2cc(C(=O)NCCCN3CCCC3)c3ccccc3n2)cc1 | 1.1 | 2.4
Cc1ccc2cc(CCNC(=O)C(C)(C)Oc3ccc(Cl)cc3)c(=O)[nH]c2c1 | 0.88 | -1.6
Cc1c(C(=O)Nc2cccc(C(F)(F)F)c2)sc2ncn(CC(=O)N3CCC(C)CC3)c(=O)c12 | 0.97 | -0.3
O=c1[nH]c(-c2ccncc2)nc2sc3c(c12)CCCC3 | 1 | 0.75
O=C(O)COc1ccccc1/C=C/c1ccc2cccc(OCc3ccccc3)c2n1 | 0.85 | -1.8
Cc1oc(-c2ccccc2F)nc1C(=O)NC1CC1 | 1 | 0.95
Cc1cc(Nc2cccc(C(F)(F)F)c2)n2nc(C)nc2n1 | 1 | 0.88
Cc1ccc(Cl)cc1NC(=O)c1csc2c1CCCCC2 | 1.1 | 2.6
CCN1CCCC1CNS(=O)(=O)c1ccc2c(c1)CCN2C(=O)C1CC1 (configuration not stated) | 1.1 | 1.2
CC1CCN(CCCNC(=O)c2cc(-c3ccncc3)nc3ccccc23)CC1 | 1 | 0.95
Cc1ccc(NC(=O)CSc2nc3ccc(C)cc3[nH]2)c(C)c1 | 1.1 | 0.72
COC(=O)c1c[nH]n2c(=O)c(Cc3cc(C)ccc3C)c(C)nc12 | 1.3 | 4.1
CCOC(=O)c1ccc(NC(=O)CSc2nccn2-c2cccc(OC)c2)cc1 | 0.9 | -1.6
COc1cc2c(cc1OC)C(C(=O)NC1CC1)C1c3ccccc3CCN1C2=O (configuration not stated) | 1.1 | 0.13
O=C(O)c1ccc2[nH]c(=O)c(Cc3ccc(F)c(F)c3)nc2c1 | 0.89 | -1.2
Cc1cc2ccccc2c(=O)n1CC(=O)N1CCN(c2ccccn2)CC1 | 0.98 | -0.42
CCOC(=O)C1CCN(C(=O)c2cnn3c(C)c(Cc4cccc(Cl)c4)c(C)nc23)CC1 | 0.97 | -1.1
CCC1Oc2ccc(C)cc2N(CC(=O)NCCCN2CCCCC2CC)C1=O (configuration not stated) | 1 | 0.37
CCc1cccc(C)c1Nc1c(-c2cccc(O)c2)nc2cnccn12 | 1.1 | 4.2
c1ccc(OCc2nc(-c3cccs3)no2)cc1 | 1.2 | 9.1
O=c1[nH]c2ccc(S(=O)(=O)Nc3ccc(F)cc3)cc2[nH]1 | 1 | 0.47
O=C(COc1ccccc1Br)Nc1nc(-c2ccccc2)cs1 | 1.1 | 1.9
CC1(C)CC(=O)C2=C(C1)N(c1ccc(F)cc1F)C(=O)CC2c1cccnc1 (configuration not stated) | 1.1 | 0.83
CCC1Oc2ccc(C)cc2N(CC(=O)NCCCN2CCN(Cc3ccccc3)CC2)C1=O (configuration not stated) | 1 | 0.7
CCCN1Cc2cccc(C(=O)Nc3ccc(Br)cc3F)c2C1=O | 1 | 0.52
Cc1onc(-c2ccccc2Cl)c1C(=O)NCCC(c1ccccc1)c1ccccc1 | 0.92 | -0.36
Cc1ccc(CNC(=O)C2CCCN(C(=O)c3cnn(-c4ccccc4)c3-n3cccc3)C2)cc1 (configuration not stated) | 0.99 | -0.74
Cc1ccc(OCCOc2cccc(-c3nc4sc5c(c4c(=O)[nH]3)CCCC5)c2)cc1C | 1.1 | 2.6
Cc1cc(-c2ccccc2)n2ncc(-c3ccccc3)c2n1 | 1.3 | 6.4
CCOC(=O)c1cnc2ccc(OCC)cc2c1NCCCN(CC)CC | 1.2 | 1.8
Cn1nc(C(=O)Nc2cccnc2)c2ccccc2c1=O | 1 | 1.5
Cc1nc(Nc2nc3ccccc3s2)nc(-c2ccccc2)c1C#N | 1.1 | 1.4
O=C(COc1ccc(Cl)cc1)NCc1nnc(SCC(=O)NC2CCCCC2)o1 | 0.97 | -0.4
Cc1ccc2nsnc2c1NC(=O)c1cc(Br)ccc1Cl | 1 | 0.24

2 of the compounds above, with values under each structure.
Each structure is followed by: CBX7 AlphaScr | CBX7 AlphaScr z-score
Cn1nc(C(=O)Nc2cccnc2)c2ccccc2c1=O
→ 1 | 1.5
CCOC(=O)c1cnc2ccc(OCC)cc2c1NCCCN(CC)CC
→ 1.2 | 1.8

An excerpt from above in order of SMILES length, lowest first:
SMILES | CBX7 AlphaScr | CBX7 AlphaScr z-score
Cn1nc(C(=O)Nc2cccnc2)c2ccccc2c1=O | 1 | 1.5
O=C(COc1ccccc1Br)Nc1nc(-c2ccccc2)cs1 | 1.1 | 1.9
CCCN1Cc2cccc(C(=O)Nc3ccc(Br)cc3F)c2C1=O | 1 | 0.52
CC1(C)CC(=O)C2=C(C1)N(c1ccc(F)cc1F)C(=O)CC2c1cccnc1 (configuration not stated) | 1.1 | 0.83
CCC1Oc2ccc(C)cc2N(CC(=O)NCCCN2CCN(Cc3ccccc3)CC2)C1=O (configuration not stated) | 1 | 0.7
Cc1ccc(OCCOc2cccc(-c3nc4sc5c(c4c(=O)[nH]3)CCCC5)c2)cc1C | 1.1 | 2.6
Cc1ccc(CNC(=O)C2CCCN(C(=O)c3cnn(-c4ccccc4)c3-n3cccc3)C2)cc1 (configuration not stated) | 0.99 | -0.74

The results go on:
SMILES | CBX7 AlphaScr | CBX7 AlphaScr z-score
CC1c2nc3ccccc3n2C(CC(=O)NCc2ccccn2)C(=O)N1Cc1ccccc1 (configuration not stated) | 0.97 | -1.6
CCN(c1ccccc1)S(=O)(=O)c1ccc2[nH]cc(C(=O)NCCC3=CCCCC3)c(=O)c2c1 | 1 | 0.46
COC(CNC(=O)c1ccc2c(c1)ncn2-c1cccc(C)c1)OC | 1 | 0.45
Cc1cc(NC(=O)CCCN2C(=O)c3cccnc3C2=O)no1 | 0.99 | -0.013
Cc1cc(C)cc(-n2ccnc2SCC(=O)Nc2nc3ccc(C)cc3s2)c1 | 1 | 0.56
Cc1ccccc1C(=O)N1CC(=O)Nc2ccc(Cl)cc2C1c1ccc(F)cc1 (configuration not stated) | 0.71 | -2.7
CCOC(=O)c1c(C)n(-c2ccc(C)cc2)c2ccc(OCC(O)CNC(CC)CO)cc12 (configuration not stated) | 0.77 | -6.6
CCCN(CCC)CCCNC(=O)C1CCN(c2nc3ccc(CC)cc3s2)CC1 | 1.7 | 7.2
Fc1ccc(-c2nnc3sc(CN4CCCCCC4)cn23)cc1 | 1 | 0.044
CC(=O)NS(=O)(=O)c1ccc(NC(=O)Nc2ccc(Cl)c(Cl)c2)cc1 | 0.98 | -0.35
Fc1ccc(CNc2ccc3nnc(-c4ccc(F)cc4)n3n2)cc1 | 1.1 | 1.3
COc1ccc(S(=O)(=O)NCCc2c(C)[nH]c3ccc(Br)cc23)c2ccccc12 | 0.9 | -1
O=C(CSc1nnc(-c2ccncc2)n1-c1ccccc1)NCc1ccccc1 | 1 | 1.2
COc1cccc(-c2cc(C(=O)Nc3cc(C)on3)no2)c1 | 0.99 | -0.21
CCc1ccc(NC(=O)CCc2c(C)nc3cc(-c4cc(OC)cc(OC)c4)nn3c2C)cc1 | 0.97 | -0.55

Molecules from the list above containing a COOH group:
SMILES | CBX7 AlphaScr | CBX7 AlphaScr z-score
O=C(O)COc1ccccc1/C=C/c1ccc2cccc(OCc3ccccc3)c2n1 | 0.85 | -1.8
O=C(O)c1ccc2[nH]c(=O)c(Cc3ccc(F)c(F)c3)nc2c1 | 0.89 | -1.2

Next part.
SMILES | CBX7 AlphaScr | CBX7 AlphaScr z-score
CC1CCc2c(C(=O)NCCCN(C)Cc3ccccc3)csc2C1 (configuration not stated) | 0.99 | -0.53
CCCCN(C)S(=O)(=O)c1ccc(C(=O)Nc2c(C(=O)OCC)oc3ccccc23)cc1 | 1.1 | 5.2
COc1ccccc1-n1c(C)nc2cc(C(=O)NCC3CCCO3)ccc21 (configuration not stated) | 0.96 | -1
Cc1ccccc1NC(=O)c1c(C)nn(-c2ccccc2)c1Cl | 0.98 | -0.42
Cc1cc(=O)n2nc(N3CCC(C(=O)Nc4ccc(C(C)C)cc4)CC3)sc2n1 | 1.1 | 1.1
COc1ccc(-c2cc(C(F)(F)F)nc(N3CCN(Cc4ccccc4)CC3)n2)cc1 | 1.1 | 6.4
COc1ccc(NC(=O)c2ccc(CNc3c(N4CCCCC4)c(=O)c3=O)cc2)cc1OC | 0.91 | -0.21
COc1ccccc1-c1c(C)nn2c(NCCc3ccc(C)cc3)cc(C)nc12 | 1 | 1.3
O=C(NCCN1CCOCC1)c1ccc2c(c1)ncn2-c1ccc(F)cc1F | 1.1 | 2
CC12CC(c3ccccc3O1)C(c1nc3ccccc3[nH]1)C(=O)N2 (configuration not stated) | 1 | 0.0062
CCCCNC(=O)c1ccc2c(c1)N(Cc1cccc(Cl)c1)C(=O)c1ccccc1S2=O (configuration not stated) | 0.93 | -0.47
COc1ccc(Nc2ncc(C(=O)NCCCN3CCCC3)c3ccccc23)cc1 | 1.1 | 3
CCCN(C(=O)Cn1nc(Cc2cccnc2)c2ccccc2c1=O)c1ccccc1F | 0.98 | -0.52
O=C(CSCc1cnn(-c2ccccc2)c1-n1cccc1)N1CCN(Cc2ccccc2)CC1 | 0.96 | -1.9
Cc1cccc(-n2c(Cc3cc(=O)[nH]c(=O)[nH]3)nnc2SCC(=O)Nc2nnc(C)s2)c1 | 1 | 0.65
Cc1cccc(CCNC(=O)C(C)C2Sc3ccccc3NC2=O)c1 (configuration not stated) | 1 | 0.25
COc1ccc2c(c1)cc1n2CCN2CCCN=C12 | 1.4 | 3.4
Cc1ccc(-n2nc3ccc(NC(=O)c4cccnc4)cc3n2)cc1 | 1.1 | 1.5
CCCc1sc(Nc2ccccc2)nc1-c1ccc(Cl)c(Cl)c1 | 0.96&0.8 | -1.1&-7.7
CCOc1ccc2nc(N3CCC(C(=O)NCc4ccccc4OC)CC3)sc2c1 | 0.96 | -0.18
CC1(C(=O)NC2CCCC2)CCC(=O)N1Cc1ccc(F)cc1Cl (configuration not stated) | 1.1 | 0.66
CCCn1c(C(O)c2ccc(N(C)C)cc2)nc2ccccc21 (configuration not stated) | 0.95 | -0.55
COCc1nc2ccccc2n1CCOc1ccccc1 | 1 | 1.4
CCn1cc(C(=O)N2CCCC(C)C2)c2cc(OC)c(OC)cc2c1=O (configuration not stated) | 1.1 | 1.3
Cc1ccc(CNC(=O)c2nnc(Cc3ccc(Cl)cc3)o2)cc1 | 0.97 | -1.4
O=C(Nc1ccccc1)c1cc(-c2cccc(Br)c2)nc2ccccc12 | 1.1 | 0.58
COc1ccc(Nc2cc(C(=O)NCCc3ccc(C)cc3)c3ccccc3n2)c(OC)c1 | 0.84 | -2.5
CCOc1ccccc1NC(=O)c1nn(-c2ccc(OC)cc2OC)c(=O)c2ccccc12 | 0.97 | -0.82
CCn1c(CNC(=O)c2cccc(C)c2)nc2ccccc21 | 1.1 | 1.4
